# FGF22 binding: binders of recombinant human FGF22 by thermal shift; SYPRO orange fluorescence; percent of sucrose octasulfate shift, DMSO zero; calls only at 9.99 µM; AID 651658; 340,000 tested, 1.5% active;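 active = melting point raised past a set limit in the mean and every replicate; inconclusive = no clear call; three in four hits are not shown here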
# Target sequence (Q9HCT0 whole entry, looked up): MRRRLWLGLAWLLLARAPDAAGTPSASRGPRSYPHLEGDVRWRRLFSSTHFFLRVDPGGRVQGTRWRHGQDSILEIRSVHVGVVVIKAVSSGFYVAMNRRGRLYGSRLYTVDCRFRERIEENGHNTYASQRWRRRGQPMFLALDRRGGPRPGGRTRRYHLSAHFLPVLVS
# ALR inh: inhibitors of human sulfhydryl oxidase ALR | P55789 | purified ALR, DTT oxidation, H2O2 HRP-luminol luminescence | inhibition, % (concentration not given with the values) | 290,000 tested, 3.8% active;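 active = mean and each replicate at 75% or more; inconclusive = only one of the two met; inactive = neither met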;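 also: stock transfer was 7.5 nL into about 7.5 µL; 0% = neutral wells and 100% = wells with inactivated enzyme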
# Target sequence (P55789 whole entry, looked up): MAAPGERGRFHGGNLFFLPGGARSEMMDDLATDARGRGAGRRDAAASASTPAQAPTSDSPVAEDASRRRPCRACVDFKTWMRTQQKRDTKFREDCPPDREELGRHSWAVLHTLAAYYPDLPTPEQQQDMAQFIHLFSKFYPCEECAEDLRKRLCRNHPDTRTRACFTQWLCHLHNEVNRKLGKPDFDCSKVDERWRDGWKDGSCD
# HNF4A DNA FP: change in binding of human HNF4 alpha to DNA; AID 1224865; 360,000 tested, 0.3% active; P41235; HNF4a-FITC DNA binding, fluorescence polarization, 1 h; activity change, % at 10 µM; in the data active = activity change above about 30%, passing the limit was not always enough;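 also: controls were the assay level and a saturating level of protein; the project sought stronger binding though the title names inhibitors; some compounds called inactive have numbers as strong as hits; positive values seem to mean higher polarization but the record does not say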
# Target sequence (P41235 whole entry, looked up): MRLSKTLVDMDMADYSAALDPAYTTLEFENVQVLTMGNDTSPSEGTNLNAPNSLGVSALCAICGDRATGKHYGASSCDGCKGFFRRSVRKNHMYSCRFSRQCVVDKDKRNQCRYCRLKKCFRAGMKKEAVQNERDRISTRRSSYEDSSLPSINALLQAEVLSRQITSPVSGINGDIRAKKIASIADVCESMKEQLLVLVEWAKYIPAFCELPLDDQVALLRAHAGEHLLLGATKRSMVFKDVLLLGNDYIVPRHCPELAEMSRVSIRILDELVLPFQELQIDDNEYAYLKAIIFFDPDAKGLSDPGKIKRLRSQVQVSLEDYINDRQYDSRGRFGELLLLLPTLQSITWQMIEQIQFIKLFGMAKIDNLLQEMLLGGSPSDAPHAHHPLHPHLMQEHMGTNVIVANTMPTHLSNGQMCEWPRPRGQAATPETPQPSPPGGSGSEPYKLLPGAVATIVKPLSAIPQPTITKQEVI
# AF4-AF9 inh: blocks AF4 peptide binding to human AF9; P42568; AlphaScreen, biotin-AF4 peptide binding to FLAG-AF9; inhibition, % at 10 µM; 350,000 tested, 0.47% active;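 active = every replicate reaching a set inhibition limit, whatever the replicate mean, cut at about 25% in these data; inconclusive = mean inhibition reaches that limit but some replicates miss it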;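 also: 0% = plate neutral control median and 100% = total signal loss; the record names both 10 and 1 µM as test concentration; the first replicate is given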
# E coli growth: blocks Escherichia coli growth. 330,000 tested, 0.21% active. OD600, 23 h; active compounds read low. OD600 absorbance (test concentration not listed);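 active = OD600 absorbance below the run mean of sample wells minus 3.6 SD, in any replicate, cut at about 0.56 in these data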;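 also: stock transfer was 300 nL into about 60 µL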
# Ecoli rRNA inh: selective bacterial rRNA inhibition in E. coli. E. coli WT GFP vs humanized-ribosome RFP mutants, fluorescence, 24 h; active compounds read low; DMSO median 0, no signal -100. GFP signal change (wild-type ribosome), % (no concentration beside the values). 350,000 tested, 1.6% active. AID 720706;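 active = significant combined selectivity score with lowered wild-type GFP, culture density cut under 30%, mutant RFP and density less affected; inactive = any of these conditions unmet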; also: one replicate is shown; some compounds called inactive have numbers as strong as hits
# Vif A3G: inhibitors of Vif binding to APOBEC3G peptide, primary screen, biochemical, TR-FRET, GST-Vif 1-94, biotin-A3G peptide, dose response retest (AID 1117319) | inhibition, %, or IC50 in µM where a hit was titrated | 260,000 tested, 0.57% active | TR-FRET GST-Vif / biotin-A3G peptide binding; higher % means a stronger effect; test concentration not given here; strong numbers were not always called active;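 active = above the screen mean plus three standard deviations and confirmed in dose response; inconclusive = results disagree or hit not tested in dose response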;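 also: Vif residues 1-94 fused to GST binding biotinylated APOBEC3G peptide 110-148; 0% = full assay without inhibitor and 100% = GST in place of GST-Vif; retest series ran down from 100 µM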
# Ecoli rRNA inh OD600: recorded beside Ecoli rRNA inh, whose call it bears; OD600 change, %; measured here: OD600 growth;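 optical density of the mix in the first replicate; 0 = DMSO median and -100 = no signal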
# Ecoli rRNA inh RFP: further read-out of Ecoli rRNA inh, marked with its call; RFP signal change, %; measured here: RFP humanized mutant strains;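 first replicate; 0 = DMSO median and -100 = no signal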
# * hit, by the source's call; i = inactive; ? = inconclusive; / = no result given. An excerpt (hit frequency here may not be typical).
FGF22 binding	ALR inh	HNF4A DNA FP	AF4-AF9 inh	SMILES	E coli growth	Ecoli rRNA inh	Ecoli rRNA inh OD600	Ecoli rRNA inh RFP	Vif A3G
i	/	0.7	3.5	Cc1ccc(C)c(Oc2cc(NC(=O)CCCn3nc(C)c([N+](=O)[O-])c3C)cc([N+](=O)[O-])c2)c1	0.72	-6	-11	-3.1	17%
/	-4	-3.3	/	O=C(Nc1ccccc1C(F)(F)F)N1CCN(C(c2ccccc2)c2ccccc2)CC1	0.74	/	/	/	3%
/	-3	-2.2	/	Cn1c(COc2ccccc2)nnc1SCCN1CCOCC1	0.69	/	/	/	-1%
i	4	1.7	0.9	CNC(=O)COc1coc(CN2CCN(c3cccc(Cl)c3)CC2)cc1=O	0.61	2	14	1.3	6%
i	-3	1.4	1.8	COc1ccc(NC(=O)CCCN2C(=O)CN(C)C2=O)cc1Cl	0.67	16	11	1.2	-19%
i	/	/	0.3	C[C@@H]1CN([C@H](C)CO)C(=O)c2cc(NC(=O)CCC(F)(F)F)ccc2O[C@@H](C)CCCCO[C@H]1CN(C)S(=O)(=O)c1cn(C)cn1	/	2	8	-1.6	/
i	-4	5.7	6.2	O=C(Nc1ccnn1C1CCN(C2CCOCC2)CC1)c1cccc(F)c1	0.69	10	10	0.7	/
i	/	1.1	-5.4	CCC(=O)Nc1ccc(N2CCOCC2)c(S(=O)(=O)Nc2ccc(Cl)cc2)c1	0.67	-2	-16	2.0	3%
i	/	/	-0.6	C[C@H](CO)N1C[C@H](C)[C@@H](CN(C)C(=O)C2CCCCC2)Oc2ncc(C#CC3(O)CCCC3)cc2C1=O	/	0	-1	-2.8	/
/	-8	6.2	/	Cc1ccccc1[C@@H]1C(C#N)=C(N)S[C@H]1C(=O)c1ccccc1	0.7	/	/	/	-1%
/	/	0.3	/	O=C(O)CSc1nnc(-c2ccccc2O)n1Cc1ccccc1	0.71	/	/	/	-2%
i	0	1.9	-7.8	O=[N+]([O-])c1ccc(N2CCCCC2)cn1	0.7	3	-3	0.3	-13%
i	-14	0.6	-1.6	CC1CCC2CCCCC2N1C(=O)c1cc([N+](=O)[O-])cc([N+](=O)[O-])c1 (stereo not drawn)	0.71	5	10	-2.1	0%
/	-20	3.1	/	Nc1nc(CSc2nnc(-c3cccc(F)c3)n2-c2ccccc2)nc(N2CCOCC2)n1	0.73	/	/	/	-10%
i	-1	1.4	1.1	COC(=O)C1CN(C(=O)COc2ccc(C)c(C)c2)c2ccccc2O1 (stereo not drawn)	0.69	-6	-4	2.1	/
i	4	4.8	1.7	O=C(C1CCC(Cn2c(=S)[nH]c3ccccc3c2=O)CC1)N1CCN(c2ccccn2)CC1 (stereo not drawn)	0.74	-19	-10	0.3	/
i	0	-2.5	-2.2	O=[N+]([O-])c1ccc(C(O)C23CN4CN(CN(C4)C2)C3)cc1 (stereo not drawn)	0.71	8	1	-5.6	15%
i	/	/	-3.1	CC(C)NC(=O)N(C)C[C@@H]1Oc2cc(C#C[C@@H](C)O)ccc2S(=O)(=O)N([C@H](C)CO)C[C@H]1C	/	2	0	-2.0	/
i	-1	1.4	-4.2	O=C(NC12CC3CC(CC(C3)C1)C2)c1c(Cl)cccc1Cl	0.72	11	7	1.5	/
i	/	/	4.9	COc1ccc2c3c([nH]c2c1)[C@@H](CO)N(S(=O)(=O)c1cn(C)cn1)CC31CCN(Cc2ccccc2Cl)CC1	/	-5	-7	0.5	/
i	/	-1.4	0.0	CCCN1CCN(CC(=O)NCC(=O)Nc2cccc(C)c2C)CC1	0.66	1	6	-3.1	1%
i	/	-1.1	-0.9	Cc1c(NS(=O)(=O)c2cccc(C(=O)O)c2)c(=O)n(-c2ccccc2)n1C	0.72	26	12	5.7	11%
i	-2	4.5	-1.4	CCN(C(=O)CN1CCN(c2cccc(C(F)(F)F)c2)CC1)c1c(N)n(Cc2ccccc2)c(=O)[nH]c1=O	0.69	7	5	4.2	5%
i	5	2.3	-2.5	O=C(/C=C/c1ccccc1)Oc1ccc(C(=S)N2CCOCC2)cc1	0.67	19	8	0.1	-7%
i	/	/	1.6	COc1ccc2c3c(n(C)c2c1)[C@H](CO)N(C(=O)CC1CC1)CC31CN(C(=O)C2CCC2)C1	/	-3	2	-3.2	/
/	3	0.9	/	CN(C)CCCN(Cc1ccccc1)C(=S)Nc1cccc(C(F)(F)F)c1	0.69	/	/	/	19%
i	-10	2.1	-6.0	CCO[C@@H]1OC(C(=O)NCc2nc3ccccc3[nH]2)=C[C@H](C2CCCCC2)[C@H]1CCCO	0.79	-15	-18	7.4	8%
i	-4	7.8	-1.0	Cc1ccc(N(C)S(=O)(=O)c2ccc3[nH]cc(C(=O)NCCCN4CCOCC4)c(=O)c3c2)cc1C	0.71	-4	-7	2.4	-7%
/	/	-3.5	-0.5	Cc1ccccc1Cn1nnc(C(=O)Nc2ccc3c(c2)OCCO3)c1N	0.69	-22	-19	-2.4	-6%
i	96*	-0.5	9.1	CCCn1c(NCc2ccc3c(c2)OCO3)nc2ccccc21	0.66	-22*	-7.2*	9.4*	4%

# Reprinted from the part before: 3 compounds, then new ones.
FGF22 binding	ALR inh	HNF4A DNA FP	AF4-AF9 inh	SMILES	E coli growth	Ecoli rRNA inh	Ecoli rRNA inh OD600	Ecoli rRNA inh RFP	Vif A3G
i	-4	7.8	-1.0	Cc1ccc(N(C)S(=O)(=O)c2ccc3[nH]cc(C(=O)NCCCN4CCOCC4)c(=O)c3c2)cc1C	0.71	-4	-7	2.4	-7%
/	/	-3.5	-0.5	Cc1ccccc1Cn1nnc(C(=O)Nc2ccc3c(c2)OCCO3)c1N	0.69	-22	-19	-2.4	-6%
i	96*	-0.5	9.1	CCCn1c(NCc2ccc3c(c2)OCO3)nc2ccccc21	0.66	-22*	-7.2*	9.4*	4%
i	-5	5.4	-3.5	COc1ccc2oc(=N)c(C(=O)NCc3ccccc3)cc2c1	0.66	12	20	0.5	/
/	5	2.3	/	CCc1ccc(-c2cn(-c3nc(C)cc(C)n3)c(=N)o2)cc1	0.72	/	/	/	20%
i	-13	-0.9	5.5	CCN(CCCNC(=O)C1CCN(C(=O)c2cc3sccc3n2C)CC1)Cc1ccccc1	0.64	3	-1	0.1	-4%
i	/	/	-8.5	O=C(C1CC1)N1CC[C@@H]2[C@H](CO)Nc3ccc(-c4cccc(F)c4)cc3[C@@H]21	/	-8	-50	11	/
i	3	-5.9	-0.1	COc1c(Br)cc(Br)cc1/C=C1/C(=O)N=C(N)N1C	0.67	-11	-13	-3.5	/
i	/	-2.0	-9.8	COc1ccc(OC)c(NC(=O)CCn2ccnc2)c1	0.68	6	13	0.6	2%
i	/	/	-12	CCC(=O)N1CCC2(CC1)CN[C@@H](CO)c1c2c2ccc(OC)cc2n1C	/	2	2	-2.3	/
i	0	3.4	11	Cc1ccc(Nc2nc(CSc3nnc(-c4ccncc4)n3-c3ccccc3C)cs2)cc1	0.65	/	/	/	/
i	10	-2.4	0.3	Cc1cccc(C(=O)NNC(=O)CCn2nnc3ccccc32)c1	/	9	1	3.3	-3%
i	/	/	9.8	C[C@H](CO)N1C[C@H](C)[C@@H](CN(C)C)Oc2cc(C#CC3CCCCC3)ccc2S1(=O)=O	/	6	-6	19	/
i	?	6.2	2.8	NC(=S)N/N=C/c1ccc(-c2ccc([N+](=O)[O-])cc2)o1	/	6	10	-1.4	/
i	0	0.2	-8.4	CN(C(=O)CSc1nnc(-c2cccs2)n1N)c1ccccc1	0.72	6	10	-1.8	/
/	-6	-0.9	/	CCCOc1ccc(-c2nnc(-c3ccco3)o2)cc1	0.68	/	/	/	-2%
i	/	4.1	1.5	O=C(NCc1ccccc1)C1c2ccccc2OCC(=O)N1Cc1ccco1 (stereo not drawn)	/	/	/	/	/
i	/	0.5	-0.9	CCCNC(=O)C1(C)CCN(C(=O)c2ccc3ccccc3c2)C1 (stereo not drawn)	/	9	12	-0.2	/
i	/	/	-11	C[C@@H]1CN([C@@H](C)CO)C(=O)c2cc(NC(=O)CCC(F)(F)F)ccc2O[C@@H](C)CCCCO[C@@H]1CN(C)S(=O)(=O)c1ccc(F)cc1	/	1	4	0.8	/
i	-11	-2.8	4.5	CC(CCOC1=NS(=O)(=O)c2ccccc21)NC(=O)C(=O)Nc1ccccc1 (stereo not drawn)	0.7	4	4	-4.8	-4%
/	-2	1.4	/	Cc1nn(-c2ncc(C(F)(F)F)cc2Cl)c(=O)n1-c1cccc(Cl)c1	0.75	/	/	/	9%
i	-29	-3.8	9.7	COc1ccc(NC(=O)C2CCCN2c2nn3c(=O)cc(C)nc3s2)cc1 (stereo not drawn)	0.69	7	9	-2.8	/
i	/	3.5	-1.0	COc1ccccc1NC(=S)N(Cc1cccs1)C1CCCC1	0.66	-15	3	-1.4	4%
i	/	0.5	-0.7	C#CCOc1ccc(CNC[C@H]2O[C@@H](n3cnc4c(N)ncnc43)[C@H](O)[C@@H]2O)cc1	0.7	10	7	4.7	5%
i	-1	-0.5	1.4	CCOC(=O)C1CCCN(CC(O)COCc2ccc3c(c2)OCO3)C1 (stereo not drawn)	0.67	-3	9	0.8	-2%
i	6	-0.5	-0.9	O=S(=O)(NCc1ccc(Cl)cc1Cl)c1ccc(N2CCOCC2)nc1	0.63	-25	-27	-2.6	-2%
i	3	2.9	-0.2	CCc1ccc(C2CC(c3ccccc3C)n3nc(N)nc3N2)cc1 (stereo not drawn)	0.74	-1	-10	-0.1	2%
i	88*	-4.9	-2.7	Cc1ccc(-n2c(-c3ccco3)n[nH]c2=S)cc1	0.67	10	4	1.9	/
/	/	-2.9	0.3	O=C(Cn1nnc(-c2ccccc2)n1)Nc1cccc(S(=O)(=O)N2CCCC2)c1	0.65	-19	-24	-4.1	-5%
/	-5	24	5.1	CNc1ccccc1C(C)(C)c1cc(-c2cccc(OC)c2)no1	0.66	-27	-39	72	1%
i	-5	-1.8	-0.4	CS(=O)(=O)c1ccc(C(=O)NCc2ccccc2F)cc1	0.72	3	8	-3.9	-2%
i	/	/	-0.1	CC(C)NC(=O)Nc1cccc2c1O[C@H](CN(C)Cc1ccc3c(c1)OCO3)[C@@H](C)CN([C@H](C)CO)C2=O	/	-5	-9	0.6	/
/	-23	1.7	/	Cc1ccc(-c2nn3c(C)nnc3c3ccccc23)cc1S(=O)(=O)N1CCN(CCO)CC1	0.72	/	/	/	14%
i	5	1.8	-0.9	COC(=O)Cn1c(=O)c2c(nc3n2CC(C)CN3Cc2ccccc2)n(C)c1=O (stereo not drawn)	0.66	1	6	-3.5	-4%
i	/	4.2	-11	COc1ccc(S(=O)(=O)N2CCOCC2)cc1NC(=O)Cc1ccccc1Cl	0.74	0	-6	-0.5	14%
i	23	-0.7	-0.7	CCS(=O)(=O)c1ccc2oc(Nc3ccc(OC)cc3)nc2c1	0.7	12	9	2.8	-6%

# 3 of the entries above in order of the Ecoli rRNA inh value, ascending:
FGF22 binding	ALR inh	HNF4A DNA FP	AF4-AF9 inh	SMILES	E coli growth	Ecoli rRNA inh	Ecoli rRNA inh OD600	Ecoli rRNA inh RFP	Vif A3G
i	-4	7.8	-1.0	Cc1ccc(N(C)S(=O)(=O)c2ccc3[nH]cc(C(=O)NCCCN4CCOCC4)c(=O)c3c2)cc1C	0.71	-4	-7	2.4	-7%
i	/	/	1.6	COc1ccc2c3c(n(C)c2c1)[C@H](CO)N(C(=O)CC1CC1)CC31CN(C(=O)C2CCC2)C1	/	-3	2	-3.2	/
i	23	-0.7	-0.7	CCS(=O)(=O)c1ccc2oc(Nc3ccc(OC)cc3)nc2c1	0.7	12	9	2.8	-6%

# Compound activity deposited in PubChem by several laboratories.
